# Screening results deposited in PubChem by ICCB-Longwood Screening Facility, Harvard Medical School.
# Choline anaer gr = blocks anaerobic gram-negative growth on choline | Gram-negative bacterium anaerobic choline minimal medium, absorbance growth; stronger effect = lower value; many inactives read as strong as hits in the columns shown | calls only | 0.2% of 55,000 active;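 active means growth z-score on choline under -2 at 7 or 20 h with little or no fall on glycerol, limits in tiers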;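 further: stock transfer was 300 nL into about 50 µL; the organism is E. coli; final concentration not given here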
# Choline anaer gr early = also measured in Choline anaer gr; calls as there; z-score; measured here: choline growth z-score, timepoint 1;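 score of optical density at 7 h as mean of two plates; lower means less growth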
# * marks the source's active call; other numbers are inactive results; i = inactive; & = joins results of further samples. The list is partial. The share of hits here may be higher or lower than overall.
# Values run as follows: Choline anaer gr	Choline anaer gr early
> Cc1nn(CC(=O)N2CCCC2)c(C)c1S(=O)(=O)N1CCCC(C(=O)Nc2ccccn2)C1 (stereo unspecified)
→ i	-0.9
> CC1=C(C(=O)NCCC(C)C)C2(CCN(Cc3ccccc3)CC2)OC1=O
→ i	0.29
> COC(=O)c1scc(-c2ccc(C)cc2)c1S(=O)(=O)N1CCc2ccccc2C1
→ i	0.94
> CC(=O)Nc1c(C)nc(Nc2ccc(C)cc2)nc1Nc1ccc(C)cc1
→ i	0.7
> O=C(Nc1cccc(Br)c1)c1ccc(Nc2ccnc(-c3cccc(F)c3)n2)cc1
→ i	0.84
> COc1ccccc1N1CCN(c2ccc(=O)n(CC(=O)NC3CC3)n2)CC1
→ i	-0.72
> Cc1ccccc1-n1nnnc1C(C)(C)N(C)C
→ i	-1.6
> COc1ccc(-c2nn(-c3ccccc3)cc2C2SCC(=O)N2Cc2ccccc2)cc1OC (stereo unspecified)
→ i	1.6
> O=C(c1ccc(Cl)cc1)N1CCN(c2ccc([N+](=O)[O-])c3ncccc23)CC1
→ i	0.34
> C/C(=C\c1ccc(C(=O)O)cc1)c1ccc2c(c1)C(C)(C)CCC2(C)C
→ i	0.44&0.56&0.69
> CCCC(=O)NCc1nc(-c2ccccc2Cl)no1
→ i	-0.12
> Fc1ccc(-c2cc(-c3nc(-c4ccccc4F)no3)[nH]n2)cc1
→ i	-0.34
> Cc1ccc(CN2CCN(C3CCN(C(=O)c4ccccc4Br)CC3)C(=O)C2=O)cc1
→ i	-0.25
> CCOC(=O)c1ccccc1NC(=O)Cn1c(=O)n(CCc2nc(-c3ccccc3)no2)c(=O)c2ccccc21
→ i	0.76
> O=C1CN(Cc2ccc(F)cc2)S(=O)(=O)c2ccccc2N1Cc1cccc(F)c1
→ i	-0.06
> CCN(CC)CCCNC(=O)CCc1cn(-c2ccccc2)nc1-c1ccc(C)cc1
→ i	1.2
> CCSc1nnc(-c2nn(C)c3c2CN(C(=O)C2CC2)CC3)n1C
→ i	-0.11
> Cn1cnc(S(=O)(=O)N2CCC(C(=O)N3CCOCC3)CC2)c1
→ i	-0.43
> Nc1cnn(-c2cnn(-c3ccccc3)c2)c1
→ i	-0.27
> CCOC(=O)Cc1ccc(NC(=O)N2CCN(c3nc4cccnc4n(C)c3=O)CC2)cc1
→ i	0.68
> Cc1cc(NC(=O)c2c(-c3ccccc3Cl)noc2C)ccc1Br
→ i	0.55
> CC(C)NC(=O)N1CCNC(=O)C1
→ i	0.73
> COc1nccn(-c2ccc(Br)c(C)c2)c1=O
→ i	0.48
> CCc1ccc(S(=O)(=O)N2CCOc3ccc(COCc4ccc(F)cc4)cc3C2)cc1
→ i	1
> CCOC(=O)Cc1ccc(NC(=O)Nc2nnc(N(CC(C)C)CC(C)C)s2)cc1
→ i	0.37
> CCN(Cc1ccccc1)c1ccc(NS(=O)(=O)c2ccc(C)cc2)cc1C(=O)O
→ i	-1.4
> Cc1ccc(-c2nn(C(C)C(=O)Nc3c(C)cccc3C)c(=O)c3c2CCCC3)cc1S(N)(=O)=O (stereo unspecified)
→ i	0.38
> O=C(NCC1CCCO1)c1nnc(-c2ccc(S(=O)(=O)N3CCOCC3)cc2)o1 (stereo unspecified)
→ i	-0.73
> CC(C)Sc1cc2c(cc1NC(=O)c1ccccc1)n(C)c(=O)n2C
→ i	-2.2
> Cc1cc2c(cc1S(=O)(=O)N1CCN(C(=O)CNC(=O)Cc3ccccc3)CC1)OCC(=O)N2
→ i	-0.7
> Cn1c(N2CCCC(C(=O)O)C2)nc2ccccc21 (stereo unspecified)
→ i	0.03
> COc1ccccc1C(=O)Nc1ccc2nc(N3CCC(c4ccccc4C)C3)cc(C(=O)O)c2c1 (stereo unspecified)
→ i	0.39
> CCOC(=O)c1cnc2c(cnn2CC)c1NN=C(C)C
→ i	0.74&0.44&0.77
> CCCCNC(=O)CCc1nc(N2CCOCC2)c2c(C)noc2n1
→ i	-1.5
> COc1ccc(OC)c(-c2[nH]ncc2CN2CCCC2c2cc(C(C)C)no2)c1 (stereo unspecified)
→ i	-0.14
> COC(=O)c1cc(S(=O)(=O)NCCC(=O)Nc2ccc(OC)cc2)cn1C
→ i	-0.71
> COc1cc(C)c(Cl)cc1S(=O)(=O)N1CCN(c2cc(N3CCCC3)nc(C)n2)CC1
→ i	-0.57
> O=C(Nc1cc(F)ccc1F)n1ncc2ccccc21
→ i	0.79
> CCOc1ccccc1NC(=O)CSc1c2c(nc3ccc(Cl)cc13)CCCC2
→ i	0.46
> Cc1[nH]nc(N)c1-c1ccc(Cl)cc1
→ i	-1.1
> Cc1ccc(-n2ccnc2SCc2nc(-c3cccc(C)c3)no2)cc1
→ i	0.05
> O=C(C1CC(c2ccccc2F)=NO1)N1CCOCC1 (stereo unspecified)
→ i	-1.6
> O=C(NCc1ccc2c(c1)OCO2)c1ccc(CN2C(=O)CCn3nc(-c4ccccc4)cc32)cc1
→ i	1.1
> Cc1nn(-c2ccc(Cl)cc2)c2sc(C(=O)Nc3ccc4c(c3)OCCO4)cc12
→ i	-0.89
> O=C(CCSCc1cnn(-c2ccccc2)c1-n1cccc1)N1CCN(c2ccccn2)CC1
→ i	-1.3
> CC(C)c1nnc(-c2ccc(S(=O)(=O)N3CCN(C(C)C)CC3)o2)o1
→ i	-1.6
> Cn1cc(C(=O)Nc2cccc(Br)c2)c2[nH]c(=O)n(-c3ccc(F)cc3)c(=O)c21
→ i	1.4
> O=c1[nH]c(=O)n([C@H]2C[C@H](O)[C@@H](CO)O2)cc1F
→ i	-2.3&-2.7
> Cc1c(C(=O)N2CCC(C(=O)N3CCN(c4ccccc4)CC3)CC2)oc2cc3sc(N(C)C)nc3cc12
→ i	1.2
> Cn1nnc2cc(C(=O)Nc3ccc(F)cc3F)ccc21
→ i	0.16
> O=C(Nc1nnc(SCc2nnc(-c3ccccc3)o2)s1)C1CCCCC1
→ i	0.39
> O=C(NOCC1CC1)c1cc(Br)c(F)c(F)c1Nc1ccc(I)cc1Cl
→ i	0.47
> CCc1ccc(C2C3=C(CC(C)(C)CC3=O)Nc3onc(C)c32)cc1 (stereo unspecified)
→ i	0.39
> O=S(=O)(Nc1cccc(-c2nnc(-c3ccccc3)o2)c1)c1ccc2c(c1)CCCC2
→ i	1.3
> CN(C)c1ccc(-c2nc3c4ccccc4ncn3n2)cc1
→ i	0.16
> CCOc1ccc(NS(=O)(=O)c2cc(C(=O)Nc3ccc(C)c(C)c3)n[nH]2)cc1
→ i	-1.1
> Cc1cc(C2CCCN2C(=O)c2cc3nc(C4CC4)cc(C(F)(F)F)n3n2)on1 (stereo unspecified)
→ i	0.02
> CCCSc1nc2sc3c(c2c(=O)n1-c1ccccc1)CC(C)(C)OC3
→ i	0.86
> CCN1CCCC1CNC(=O)c1cnn2c3c(cnc12)CCCCCC3 (stereo unspecified)
→ i	-1.2
> Cc1ccc(CN2CCc3c(Br)cccc3C2)cc1
→ i	-0.8

# Exported with each value named: part of the list above.
SMILES: Cn1nnc2cc(C(=O)Nc3ccc(F)cc3F)ccc21
  Choline anaer gr = i | Choline anaer gr early = 0.16
SMILES: O=C(Nc1nnc(SCc2nnc(-c3ccccc3)o2)s1)C1CCCCC1
  Choline anaer gr = i | Choline anaer gr early = 0.39

# Continued.
# Values run as follows: Choline anaer gr	Choline anaer gr early
> CCOC(=O)c1c(S(=O)(=O)N2CCC(C(=O)Nc3ccc(Cl)cc3)CC2)c(C)n(C)c1C
→ i	0.3
> Cc1cc(C)c2nc(N3CCCC(C(=O)N4CCN(c5ccccn5)CC4)C3)sc2c1 (stereo unspecified)
→ i	1
> NC(=O)C1=C(Nc2ccc(Cl)cc2)c2ccccc2S1(=O)=O
→ i	-0.27
> CC1CCN(S(=O)(=O)c2ccc3c(ccn3CC(=O)NCc3ccccc3)c2)CC1
→ i	-0.09
> CC(C)Cc1ccc(S(=O)(=O)NCc2nc3cccnc3n2Cc2ccccc2)cc1
→ i	0.4
> CN1CCN(C2=NS(=O)(=O)c3ccccc32)CC1
→ i	1
> CNC(=O)N1c2ccccc2NC2=C(C(=O)CC(C)(C)C2)C1c1ccccc1 (stereo unspecified)
→ i	-0.64
> Cc1ccccc1OCCn1c(CO)nc2ccccc21
→ i	0.46
> CCOC(=O)c1cnc2c(-c3ccc(OC)c(OC)c3)cnn2c1N
→ i	0.95
> Cc1ccccc1Cn1c(CN2CCC(C(=O)O)CC2)cc2ccccc21
→ i	0.62
> CC/C(=C(\c1ccccc1)c1ccc(OCCN(C)C)cc1)c1ccccc1
→ i	-0.09&-5&0.21&-0.95&-3.4&-3.5
> CC(C)NC(=O)N1CCOc2ccc(COCc3ccccc3Cl)cc2C1
→ i	-1.1
> CN(C)CCNC(=O)Cn1nc(N2CCN(c3ccccc3)CC2)ccc1=O
→ i	-0.5
> Cc1cccc(-c2noc(-c3cccnc3N3CCC(C(=O)NCc4ccccc4)CC3)n2)c1
→ i	0.92
> O=C(c1cccc(Cl)c1)N1CCN(C(=O)c2cc3ccccc3[nH]2)CC1
→ i	0.33
> CCc1nc(-c2cc(S(=O)(=O)NCC(=O)NC3CCCc4ccccc43)c(C)s2)no1 (stereo unspecified)
→ i	-0.55
> COC(=O)c1cc(S(=O)(=O)N2CCCC2C(=O)Nc2cccc(C)n2)cn1C (stereo unspecified)
→ i	-1.5
> COc1ccc(-c2nc(Nc3ccccc3OC)c3ccccc3n2)cc1
→ i	1
> O=C(Nc1ccc(F)c(F)c1)c1ccc(S(=O)(=O)c2ccc(Br)cc2)nc1
→ i	1.8
> Cc1cccc(C(=O)Nc2cc3[nH]c(=O)[nH]c3cc2C)c1
→ i	-0.88

# Record cards, as listed above. Screens in order: Choline anaer gr, Choline anaer gr early
# COc1nccn(-c2ccc(Br)c(C)c2)c1=O is entered as i, 0.48
# O=C(c1ccc(Cl)cc1)N1CCN(c2ccc([N+](=O)[O-])c3ncccc23)CC1 is entered as i, 0.34

# The listing continues.
# Values run as follows: Choline anaer gr	Choline anaer gr early
> CCn1c(SCc2cccc(C)c2)nc(=O)c2c(C(=O)OC)cc(C)nc21
→ i	0.07
> Cc1cc(C(=O)N2CCN(c3ccccc3F)CC2)c2cccc(-c3ccccc3)c2n1
→ i	-0.35
> O=S1(=O)CCC(S(=O)(=O)N(Cc2ccccc2)Cc2ccccc2)C1 (stereo unspecified)
→ i	0.89
> c1cc(-c2nc3c(c(N4CCSCC4)n2)CCC3)ccn1
→ i	0.4
> Cc1cc2c(cc1S(=O)(=O)N1CCCC(C(=O)NCc3ccccc3Cl)C1)OCC(=O)N2 (stereo unspecified)
→ i	0.27
> COc1ccc(NC(=O)N2CCc3cc(-c4ccc(C(=O)N5CCOCC5)cc4)ccc32)cc1OC
→ i	0.86
> COc1cccc(-c2cc(=O)n3c4ccccc4n(CC(=O)Nc4ccc(C)cc4)c3n2)c1
→ i	-1.4
> O=C(NCc1ccc(Cl)cc1)c1cnc2sc(N3CCCCC3)nn2c1=O
→ i	0.76
> CC(=O)N1c2ccc(S(=O)(=O)N3CCC(C(=O)Nc4cccc(Cl)c4C)CC3)cc2CC1C (stereo unspecified)
→ i	0.92
> NC(=O)c1ccsc1NC(=O)CS(=O)(=O)c1ccc(Cl)cc1
→ i	0.12
> Cc1nc2ncccc2c(=O)n1-c1cccc(NC(=O)c2ccccc2)c1
→ i	-1.2
> Cc1nnc2ccc(-c3noc(-c4ccc(F)c(F)c4)n3)cn12
→ i	0.58
> CCOc1ccc(N(C)C(=O)C2CCCN2S(=O)(=O)c2cc(C(=O)OC)n(C)c2)cc1 (stereo unspecified)
→ i	-0.75
> CCOc1ccc(-c2c(C)[nH]n3c(=O)c(N4CCc5ccccc5C4)c(C)nc23)cc1OCC
→ i	-0.35
> O=C(CC(c1ccc(F)cc1)N1Cc2ccccc2C1=O)Nc1cccnc1 (stereo unspecified)
→ i	-1
> C=CCn1c(=O)[nH]c2nc3cc(NC(=O)CC)ccc3nc2c1=O
→ i	1
> CCc1onc(C)c1C1CCCN1C(=O)NCC1CCCO1 (stereo unspecified)
→ i	0.6
> CCOc1c(C)cnc2c1c(=O)n(CC(=O)NC(C)(C)C)c(=O)n2C
→ i	-0.7
> CC(C)c1noc(COC2CCCN(S(=O)(=O)c3cnc[nH]3)C2)n1 (stereo unspecified)
→ i	-0.07
> CCn1cnc(S(=O)(=O)N2CCCC(C(=O)N3CCc4ccccc43)C2)c1 (stereo unspecified)
→ i	-0.64
> CN(C)CCNCc1ccc(-c2ccccc2F)o1
→ i	0.01
> COC(=O)c1c(NC(=O)c2ccc(S(=O)(=O)N3CCCCC3)cc2)sc2c1CCN(C)C2
→ i	-0.84
> O=c1ccc(-c2ccc3c(c2)OCO3)nn1CCc1nc(-c2ccccc2)no1
→ i	1.3
> Cc1nc2nc(Cc3cccc(F)c3)[nH]n2c(=O)c1C
→ i	-0.42
> Cc1ccc(NC(=O)CCc2nnc3ccc(NCc4ccccc4Cl)nn23)cc1
→ i	-0.34
> COc1ccc(Cl)cc1S(=O)(=O)NCCn1c(-c2ccncc2)nc2cccnc21
→ i	-0.79
> CC(C)COC(=O)c1ccc(N2CC(O)=C(c3nc4ccccc4c(=O)[nH]3)C2=N)cc1
→ i	0.5
> COc1cc(OC)c(Nc2c(-c3ccc(C)cc3)c(=O)c2=O)cc1Cl
→ i	-1.9
> CCN1CCN(S(=O)(=O)c2ccc(C)cc2C)c2cccnc21
→ i	-0.19
> Fc1ccc2nc(CN3CCSCC3)cn2c1
→ i	-0.6
> CC(C)(C)c1ccc(C(=O)N2CCN(Cc3cc(=O)n4nc(-c5ccccc5F)sc4n3)CC2)cc1
→ i	-0.77
> COc1ccccc1N1CCN(Cc2cc(=O)n3ccsc3n2)CC1
→ i	-1.2
> COc1ccc2cc3c(N)nn(C(=O)c4ccc(F)cc4Cl)c3nc2c1
→ i	0.38
> CCCN(C(=O)c1cccc(F)c1)c1nc(-c2ccc(C)cc2)cs1
→ i	1.6
> CCOC(=O)c1sc2nc(-c3cc(OC)cc(OC)c3)c(NCc3ccc(OC)cc3)n2c1C
→ i	-0.24
> COc1ccc(-c2[nH]ncc2C(=O)NCc2ccccc2C)cc1
→ i	0.91
